miR-21 FLuc = miR-21 reporter, rising signal; 340,000 tested, under 10 active; HeLa miR-21 FLuc reporter, luciferase, 48 h; Potency, µM (series often up to 38.3 µM), without a hit: top-dose reporter change, positive = more light; active = well fitted rising curve with a large enough effect; inconclusive = small, poorly fitted or top-dose-only effect; inactive = no such curve, though single readings can be large or run the other way;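 further: % of control where 0% means no effect; miR-21 action dims this reporter so a rising signal means less miR-21 action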
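HeLa miR-21-FLuc reporter line, endogenous miR-21; 2000 cells/well in DMEM/10% FBS; compound titration up to ~40uM final, 48 h, 37 degree Celsius; luciferase detection reagent, 15 min lysis, CCD luminescence.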
Rango-impB inh = inhibitors of Rango-importin beta complex formation; Rango CFP/YFP FRET sensor + importin beta, 45 min; Potency, µM (highest dose often 92.2 µM), without a hit: top-dose inhibition of complex formation; actives 0.031% (n = 340,000); AID 540263; active = rising FRET ratio curve, often small or poorly fitted; inconclusive = mostly compound fluorescence or quenching in the first reads; inactive = flat curves in all reads;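 further: potency means the concentration at half of the fitted maximal effect; 0% = DMSO wells and 100% = buffer wells lacking importin beta; nearly all actives have a fitted effect of over 15% in size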
Target sequence (Q14974 whole entry, looked up): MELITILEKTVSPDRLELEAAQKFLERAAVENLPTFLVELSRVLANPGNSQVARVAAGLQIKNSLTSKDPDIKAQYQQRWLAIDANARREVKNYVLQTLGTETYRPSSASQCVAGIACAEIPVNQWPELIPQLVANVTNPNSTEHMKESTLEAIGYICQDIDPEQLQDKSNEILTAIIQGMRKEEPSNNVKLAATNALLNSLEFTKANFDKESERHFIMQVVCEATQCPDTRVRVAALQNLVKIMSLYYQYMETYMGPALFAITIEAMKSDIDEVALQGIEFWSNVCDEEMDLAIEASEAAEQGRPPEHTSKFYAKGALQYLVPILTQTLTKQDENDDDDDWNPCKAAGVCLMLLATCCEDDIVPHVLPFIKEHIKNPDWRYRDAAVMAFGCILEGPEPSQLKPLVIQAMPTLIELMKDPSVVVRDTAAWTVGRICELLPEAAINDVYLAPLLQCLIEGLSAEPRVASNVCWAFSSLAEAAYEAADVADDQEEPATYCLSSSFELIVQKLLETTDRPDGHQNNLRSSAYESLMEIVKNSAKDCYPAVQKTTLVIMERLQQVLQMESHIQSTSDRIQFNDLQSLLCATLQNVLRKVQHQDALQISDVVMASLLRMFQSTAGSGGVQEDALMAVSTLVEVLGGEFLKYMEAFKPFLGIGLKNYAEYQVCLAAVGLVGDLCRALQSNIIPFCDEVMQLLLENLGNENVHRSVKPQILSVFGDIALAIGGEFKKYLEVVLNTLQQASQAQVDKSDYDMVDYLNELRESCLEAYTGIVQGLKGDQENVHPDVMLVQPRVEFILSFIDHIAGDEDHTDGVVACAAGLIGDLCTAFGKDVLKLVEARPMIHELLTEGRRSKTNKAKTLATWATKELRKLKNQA
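FRET biosensor Rango (snurportin 1 IBB between N-terminal EYFP and C-terminal Cerulean), 50 nM in PBS/1 mM DTT/0.02% Tween-20/0.1% BSA, preincubated 5 min RT with compound; 0.125 microM importin beta added, 45 min RT, CFP/YFP FRET ratio read.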
GLA inh pH 4.5 = inhibitors of human alpha-galactosidase A at pH 4.5; P06280; purified enzyme, 4-MU-alpha-Gal fluorescence, pH 4.5; activity change, negative = inhibition, % at 105 µM; 230,000 tested, under 10 active; AID 1467; inconclusive = small, poorly fitted or top-dose-only inhibition, or a rising curve; inactive = flat fitted curve, though single readings scatter; no compound was filed as active;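 further: 0% = full activity with enzyme and -100% = basal without enzyme; dose as in the result columns while the protocol names 77 µM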
Rango dissoc inh = inhibition of RanGTP-driven Rango-importin beta dissociation; actives 0.071% (n = 340,000); Biochemical FRET Rango-importin beta, RanGTP-induced dissociation; O95149+P62826; Potency, µM (titrated, usually from 46.1 µM), inactives show at the highest dose activity change, negative = inhibition; active means falling FRET ratio curve, often poorly fitted, with flat reads before Ran was added; inconclusive means other falling curves, or compound fluorescence or quenching; inactive means flat or rising ratio curve;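 further: potency means the concentration at half of the fitted maximal effect; % of control where 0% means no effect; nearly all actives have a fitted effect of over 45% in size; -100% = wells without RanGTP and RCC1; the record marks most hits as doubtful in a second field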
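Compounds preincubate 5 min with complex of recombinant Rango and importin beta in PBS with 1 mM DTT. Ran (0.6 uM) loaded with 2 mM GTP plus 0.2 uM RCC1 starts dissociation; FRET is recorded 45 min later.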
* marks the source's active call; other numbers are inactive results; ? = inconclusive; / = not tested or not shown; & = joins results of further samples; [ ] = remark or other dose.

Value order – miR-21 FLuc | Rango-impB inh | GLA inh pH 4.5 | Rango dissoc inh
- CN(CCC(=O)c1ccccc1)CCC(=O)c1ccccc1
  0.3% | 1.8% | / | 0.4%
- O=C(CSc1nnc(-c2ccccc2)n1Cc1ccco1)Nc1ccc2c(c1)OCCO2
  -17.0% | -2.2% | 0.7 | 11.0%
- COC(=O)[C@H]1C[C@@H]1[C@H](NC(=O)c1ccccc1)c1ccccc1
  1.2% | 1.3% | -5.6&-3.5 | 3.4%
- CCn1c(N)c(C(=O)N2CCOCC2)sc1=S
  -6.9% | -1.7% | -20.6 | -7.0%
- Cc1cnc(C(=O)N2CCCC(C(=O)c3cccc(OC(C)C)c3)C2)cn1 (stereo unspecified)
  -9.2% | 1.5% | 2.9 | 7.9%
- Cc1cc(=O)oc2cc(OCCSCCN3CCOCC3)ccc12
  -23.1% | 1.7% | -6.9 | -3.4%
- CCn1cc(C(=O)O)c(=O)c2cnc(N3CCN(C(=S)Nc4ccc(F)cc4)CC3)nc21
  -5.7% | 0.8% | 3.4 | 14.0%
- Nc1ccccc1Sc1nc2ccccc2[nH]1
  -2.9% | -1.8% | -1.9 | 2.3%
- NC(=O)c1ccc(NC(=O)CCC(=O)N2CCN(S(=O)(=O)c3ccc(Cl)cc3)CC2)cc1
  -12.7% | -2.2% | 2.2 | 13.7%
- CC[C@@]1(C(=O)OC)N[C@H](CN(C)C(=O)COC)[C@@H]2C(=O)N(C)C(=O)[C@@H]21
  / | -0.7% | / | -9.9%
- C/C(Cc1ccccc1)=N\NC(=O)CNC(=O)c1cccc(F)c1
  -1.1% | -5.7% | / | 9.9%
- CCOP(=O)(OCC)c1nc(-c2ccc(Cl)cc2Cl)oc1N1CCCCC1
  -4.2% | 2.4% | -16.5 | 13.5%
- Cc1ccc(C(=O)Nc2nc3ccc(S(C)(=O)=O)cc3s2)o1
  -8.2% | 3.8% | -15.6 | -8.0%
- CCCCN1C(=O)C(C)=C(C)C1OCCc1ccc(OC)c(OC)c1 (stereo unspecified)
  -2.3% | 2.7% | / | -14.1%
- O=Cc1ccccc1-n1cccn1
  -1.8% | -1.1% | 8.0 | 1.7%
- Cc1csc(=O)n1CCC(=O)OCC(=O)Nc1ccc(F)c(F)c1F
  / | 1.1% | / | -2.2%
- O=C(CCC(=O)c1cccs1)Nc1ccccc1F
  -16.7% | 0.0% | -19.4 | 1.8%
- CN(Cc1ccccc1)C(=O)CN1C(=O)NC2(CCCC2)C1=O
  / | -1.2% | / | 0.4%
- CN(C[C@H](Cc1ccccc1)N(C[C@H](Cc1ccccc1)N(CCC(C)(C)C)N=O)N=O)N=O
  1.2% | 5.4% | -7.8 | 0.7%
- Cc1occc1C(=O)NNC(=O)Nc1ccc(F)cc1F
  -3.8% | -1.1% | -12.5 | -5.7%
- COc1ccc(N(CC(=O)NCc2ccc(F)cc2)S(=O)(=O)c2c(C)noc2C)cc1
  1.0%&-1.9% | -1.5% | / | 27.6%
- Nc1ccncc1N
  / | -4.1% | / | -11.6%
- Nc1ccc2[nH]c(=S)sc2c1
  / | 1.4% | / | 6.1%
- O=S(=O)(NNc1ncc(C(F)(F)F)cc1Cl)c1ccc(F)cc1F
  / | 1.4% | / | -17.6%
- CC(=O)Nc1nc(-c2ccc3c(c2)CC(C)N3C(=O)C2CC2)c(C)s1 (stereo unspecified)
  21.4% | -1.3% | / | 12.3%
- CC[C@]12c3[nH]c4cc(-c5ccco5)ccc4c3CCN1C(=O)[C@@H](CC(=O)NCCCOC)C[C@@H]2C(=O)N1CCN(C(=O)C2CC2)CC1
  / | ? | / | ?
- CCC(=O)N1CCc2cc(S(=O)(=O)NCCN3CCCCC3CC)ccc21 (stereo unspecified)
  -9.9% | -0.9% | 4.7 | -14.6%
- C=CCOc1cccc(C2/C(=C(/O)c3ccc(C)cc3)C(=O)C(=O)N2CCN2CCOCC2)c1 (stereo unspecified)
  -10.3% | -3.6% | 0.9 | 6.9%
- Cc1ccc(C(=O)NCC(=O)Nc2ccc3c(c2)CCC3)cc1
  / | -0.7% | / | 1.2%
- C=CCn1c(CCNC(=O)c2ccccc2F)nnc1SCC(=O)Nc1nc(C)cs1
  -1.9% | 0.0% | 7.8 | 8.3%
- COCCOC(=O)c1c(C)n(C)c2ccc(OC(=O)c3c(OC)cccc3OC)cc12
  0.4% | 0.4% | / | 6.1%
- Cc1ccc(-c2ccnc(=S)[nH]2)cc1
  -20.0% | 0.7% | 6.6 | -6.9%
- O=S(=O)(O)c1nc2ccccc2n1Cc1ccccc1
  -7.5% | -1.2% | 6.2 | -4.9%
- CN(Cc1ccccc1)c1ccc(S(=O)(=O)N2CCC(C(=O)O)CC2)cc1[N+](=O)[O-]
  0.2% | 7.3% | 10.1 | 28.9%
- CCCCC(=O)Nc1ccc(C(=O)NNC(=O)c2ccc(C)c(Br)c2)cc1
  -28.6% | 2.6% | -14.3 | -8.7%
- CN(C)S(=O)(=O)c1cccc(C(=O)NCC2(N3CCOCC3)CCCCC2)c1
  -12.5% | 0.1% | -3.5 | -4.1%
- Cc1cccc(OC(C)C(=O)N/N=C\c2ccncc2)c1 (stereo unspecified)
  0.4% | 0.3% | 2.0 | 1.7%
- O=C(CN1C(=O)NC2(CCCCCCC2)C1=O)Nc1ccc(Br)cc1
  / | -0.7% | / | -1.0%
- Cc1ccc(-n2nc3c(=O)n(CC(=O)NCCc4cccs4)nc(C)c3c2C)cc1
  8.0% | 0.7% | / | 16.2%
- CC(C)(C)CC(=O)Nc1cccc(-c2cn3cccnc3n2)c1
  -48.3% | -3.4% | 29.9 | ?
- CCCCn1c(N)c(N(CCOC)C(=O)C(C)Oc2ccc(Cl)cc2)c(=O)[nH]c1=O (stereo unspecified)
  / | -0.8% | / | -5.2%
- COc1ccc(C2CC(c3cccs3)=NN2C(=O)CSC2=NN3CCCC(=O)N=C3S2)cc1 (stereo unspecified)
  -19.6% | 0.2% | 5.4 | 13.9%
- N#CCOC(=O)c1sccc1-n1cccc1
  -3.0% | -3.1% | -2.2 | 1.3%
- Cc1ccc(S(=O)(=O)N2CCCCC2)cc1C(=O)OC(C)C(=O)NC1CCCCC1C (stereo unspecified)
  / | 6.5% | / | -3.3%
- CC1CC(C)CN(C2CCCCC2NS(=O)(=O)c2ccc(Cl)cc2)C1 (stereo unspecified)
  -0.3% | ? | / | 17.9%
- COc1ccc(Nc2c3c(nc4ccccc24)CCC3)c(OC)c1
  ? | -1.3% | / | 2.6%
- Cc1cccc(NC(=O)COn2nnc3ccc(S(C)(=O)=O)cc32)c1
  3.8% | -2.3% | 2.9 | -18.1%
- CCOc1cccc2cc(C(=O)Oc3ccc(OC)cc3)c(=O)oc12
  -4.6% | -0.6% | / | -6.6%
- CCOc1ccccc1N1CCN(C(=O)Nc2cccc(Cl)c2)CC1
  -1.9% | 0.2% | -16.2 | 22.7%
- CCOC(=O)C1Oc2ccccc2C(C(=O)OC)=C1C(=O)OC (stereo unspecified)
  / | ? | -5.7 | ?

Later entries
Value order – miR-21 FLuc | Rango-impB inh | GLA inh pH 4.5 | Rango dissoc inh
- CCOC(=O)c1ccccc1NC(=O)C1CC(=O)N(c2ccccc2)C1 (stereo unspecified)
  -12.0% | 0.8% | -4.4 | 3.8%
- CC12CCC(C(=O)Nc3c(Cl)cccc3Cl)(C(Br)C1=O)C2(C)C (stereo unspecified)
  -2.2% | ? | 10.9 | ?
- Cc1cccc(-c2nc3c(c(SCC(=O)N4CCOCC4)n2)COC(C)(C)C3)c1
  -3.4% | 2.0% | / | 4.6%
- Cc1ccc(C)c(OCCC(=O)OCC(=O)N2c3ccccc3NC(=O)C2(C)C)c1
  / | 0.4% | / | -3.3%
- S=C(NCCc1ccccc1)N/N=C/C1CCCCC1
  -13.5% | / | -4.3 | /
- CCOc1cc(S(=O)(=O)NCc2ccccn2)ccc1Cl
  -16.4% | -3.4% | -3.7 | 4.7%
- Cc1cc(C)cc(NS(=O)(=O)CCCS(=O)(=O)Nc2cc(C)cc(C)c2)c1
  / | 0.4% | / | -1.8%
- CCNc1nc(NC(C)C)nc(OCCOC(=O)c2ccccc2)n1
  -16.0% | -4.1% | -7.2 | -3.1%
- CCc1ccc(NC(=O)CSc2nnc(C3CC3)n2CC2CCCO2)cc1 (stereo unspecified)
  -8.1% | 5.4% | / | 4.7%
- Cc1sc(NC(=O)/C=C/c2ccc(C(C)C)cc2)c(C#N)c1C
  6.5% | -0.3% | ? | 23.9%

Gathered by group, those above with a COOH group (two)
Value order – miR-21 FLuc | Rango-impB inh | GLA inh pH 4.5 | Rango dissoc inh
- CCn1cc(C(=O)O)c(=O)c2cnc(N3CCN(C(=S)Nc4ccc(F)cc4)CC3)nc21
  -5.7% | 0.8% | 3.4 | 14.0%
- CN(Cc1ccccc1)c1ccc(S(=O)(=O)N2CCC(C(=O)O)CC2)cc1[N+](=O)[O-]
  0.2% | 7.3% | 10.1 | 28.9%

Going on with the list.
Value order – miR-21 FLuc | Rango-impB inh | GLA inh pH 4.5 | Rango dissoc inh
- CCOc1ccc(C(=O)NCCc2cnc[nH]2)cc1
  -9.5% | -2.3% | / | 22.4%
- Cc1c(CC(=O)NCC(=O)N[C@H](Cc2ccccc2)C(=O)O)c(=O)oc2cc(O)ccc12
  0.7% | ? | / | ?
- CCn1cc(C(=O)NN)c(=O)c2cc(F)c(N3CCN(C)CC3)cc21
  -4.7% | -0.1% | / | 17.1%
- Cn1c(=NC(=O)C2CC2)sc2cccc(F)c21
  -35.4% | 0.5% | -0.2 | -10.0%
- O=C(Nc1cccc([N+](=O)[O-])c1)c1cc(S(=O)(=O)N2CCOCC2)cs1
  1.0% | -2.3% | / | 7.2%
- Cc1noc(C)c1CSCC(=O)Nc1cc(S(=O)(=O)N2CCCCC2)ccc1OC(C)C
  / | -0.6% | / | -25.1%
- Cc1cc(S(=O)(=O)N(Cc2ccc3c(c2)OCO3)CC2CCCO2)ccc1-n1cnnn1 (stereo unspecified)
  0.3% | -0.4% | -6.4 | 3.6%
- C[C@@H]1NS(=O)(=O)[C@H]2C[C@@H]3C=C[C@]2(O3)[C@H]1OC(=O)c1ccc(C(C)(C)C)cc1
  / | -0.6% | / | 3.2%
- O=C(Nc1nccs1)c1sc2cc(Cl)ccc2c1Cl
  -37.8% | -2.7% | ? | -1.2%
- O=C(c1ccc(F)cc1)c1cc2ccccc2o1
  -50.1% | 0.8% | 1.1 | -12.9%
- Cc1cc(C)n(-c2nnc(C)n2/N=C/c2ccccc2F)n1
  1.6% | -2.7% | 4.7 | 10.3%
- Cn1c(=O)cc(SCC(=O)NCc2ccc(F)cc2)c2ccccc21
  19.2% | 1.8% | 3.3[21.1 µM] | 13.9%
- COc1ccccc1C1CC(c2ccc(F)cc2)Nc2ncnn21 (stereo unspecified)
  -0.2% | -7.1% | -7.3 | -4.4%
- CCc1cc2c(NCC3CCCO3)ncnc2s1 (stereo unspecified)
  0.3% | ? | 2.5 | -12.7%
- COC(=O)c1cccc(NC(=O)Nc2ccc(Cl)c(Cl)c2)c1
  22.8% | -1.1% | -4.0 | 9.6%
- O=C1CCC/C(=N\NC(=O)NC2CCCCC2)C1
  -3.5% | 2.0% | -4.4 | -3.2%
- CCN(CC)C(=O)C1CCCN(Cc2ccc(F)c(F)c2)C1 (stereo unspecified)
  -8.4% | -3.6% | -0.1 | -0.9%
- Cc1cccc(-n2ccnc2SCC(=O)Nc2ccc3c(c2)OCCO3)c1
  -31.6% | 1.5% | -4.2 | -9.5%
- O=C(N/N=C/C=C\c1ccccc1[N+](=O)[O-])c1ccccn1
  -54.5% | -2.0% | -7.2 | -4.1%
- COCCOC(=O)c1c(C)oc2ccc(OS(C)(=O)=O)cc12
  -28.2% | 9.3% | 6.5 | 4.3%
- CCOc1cc(/C=C2\C(=N)N3N=C(S(=O)(=O)CC)SC3=NC2=O)ccc1OC(=O)c1ccco1
  3.7% | 5.1% | / | ?
- CC(CNC(=O)COc1ccc2c(c1)OCO2)c1ccccc1 (stereo unspecified)
  / | 3.1% | / | 13.8%
- O=C(Nc1ccc(F)cc1)N1CCN(CCc2ccccc2)CC1
  -5.5% | 0.4% | 4.8 | 5.4%
- O=C(N/C=C\c1ccccc1)NCc1ccc(Cl)cc1Cl
  -6.1% | -2.3% | 1.6 | -0.3%
- C=CCSc1nc2ccccc2c(=O)[nH]1
  -15.1% | ? | 1.7 | -13.7%

Assay outcomes as filed in PubChem.

The list is partial; count on the stated rates, not on these rows.
